HNF4A DNA FP – change in binding of human HNF4 alpha to DNA | activity change, % at 10 µM | HNF4a-FITC DNA binding, fluorescence polarization, 1 h | 360,000 compounds, 0.3% hits; in the data active = activity change above about 30%, passing the limit was not always enough;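 note: controls were the assay level and a saturating level of protein; the project sought stronger binding though the title names inhibitors; some compounds called inactive have numbers as strong as hits; positive values seem to mean higher polarization but the record does not say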
Target sequence (P41235 whole entry, looked up): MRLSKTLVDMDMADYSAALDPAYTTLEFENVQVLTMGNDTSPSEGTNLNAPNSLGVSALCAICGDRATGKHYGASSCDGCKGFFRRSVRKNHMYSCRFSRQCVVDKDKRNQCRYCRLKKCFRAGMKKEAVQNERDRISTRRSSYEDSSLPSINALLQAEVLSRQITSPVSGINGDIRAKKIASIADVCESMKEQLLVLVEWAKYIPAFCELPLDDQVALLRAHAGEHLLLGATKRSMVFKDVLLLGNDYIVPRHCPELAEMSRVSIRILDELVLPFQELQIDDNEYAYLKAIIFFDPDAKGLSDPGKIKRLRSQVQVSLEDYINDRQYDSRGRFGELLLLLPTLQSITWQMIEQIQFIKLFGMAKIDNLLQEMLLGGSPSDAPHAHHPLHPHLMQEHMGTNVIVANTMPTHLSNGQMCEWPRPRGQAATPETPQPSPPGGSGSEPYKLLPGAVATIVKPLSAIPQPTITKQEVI
UCH37 inh – blocks the human deubiquitinase UCH37; purified proteasome/UCH37, Ub-AMC cleavage fluorescence; Q9Y5K5; inhibition, % (test concentration not listed); 330,000 compounds, 0.33% hits; AID 588478;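 active = mean of two replicates above 20%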;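 note: 0% = compound-free wells with enzyme and 100% = wells lacking proteasome; stock transfer was 100 nL into about 20 µL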
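Test system – human UCH37 enzyme supplied as purified proteasome complex · Incubation – 30 min preincubation with enzyme, 25 min cleavage at room temperature · Detection – AMC fluorescence from Ub-AMC cleavage, excitation 355 nm, emission 460 nm · Benchmarks – no-proteasome wells (full inhibition) and compound-free wells (no inhibition)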
Beta2AR agonist – activates human beta-2 adrenergic receptor causing internalization. P07550. 340,000 compounds, 0.43% hits. AID 504454. response, % (no concentration beside the values). Am2.2-beta2AR cells, FAP receptor internalization, flow cytometry; reference of the scale not given here;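 active = response above a set limit, near 3 SD of response in nonfluorescent compounds, cut at about 42% in these data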;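 note: stock transfer was 100 nL into about 11 µL; a reference agonist was the positive control; negative values mostly stem from fluorescent compounds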
ALR inh – inhibitors of human sulfhydryl oxidase ALR; P55789; purified ALR, DTT oxidation, H2O2 HRP-luminol luminescence; inhibition, % (concentration not given with the values); 290,000 compounds, 3.8% hits;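 active = mean and each replicate at 75% or more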;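 note: stock transfer was 7.5 nL into about 7.5 µL; 0% = neutral wells and 100% = wells with inactivated enzyme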
Target sequence (P55789 whole entry, looked up): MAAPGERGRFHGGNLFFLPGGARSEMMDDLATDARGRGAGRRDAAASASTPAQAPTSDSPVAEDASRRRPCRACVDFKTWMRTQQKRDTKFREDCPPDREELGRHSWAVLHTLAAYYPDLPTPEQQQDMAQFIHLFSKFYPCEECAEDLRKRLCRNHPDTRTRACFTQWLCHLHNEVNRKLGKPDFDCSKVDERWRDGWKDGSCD
Ecoli rRNA inh – inhibits bacterial ribosomal RNA function over humanized ribosomes. 350,000 compounds, 1.6% hits. E. coli WT GFP vs humanized-ribosome RFP mutants, fluorescence, 24 h; hits give low values; DMSO median 0, no signal -100. GFP signal change (wild-type ribosome), % (test concentration not listed);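 active = significant combined selectivity score with lowered wild-type GFP, culture density cut under 30%, mutant RFP and density less affected; inactive = any of these conditions unmet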; note: one replicate is shown; some compounds called inactive have numbers as strong as hits
FGF22 binding – shifts melting point of recombinant human FGF22. Q9HCT0. recombinant FGF22 thermal shift, SYPRO orange fluorescence; percent of sucrose octasulfate shift, DMSO zero. calls only at 9.99 µM. 340,000 compounds, 1.5% hits;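 active = melting point raised past a set limit in the mean and every replicate; three in four hits are not shown here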
Target sequence (Q9HCT0 whole entry, looked up): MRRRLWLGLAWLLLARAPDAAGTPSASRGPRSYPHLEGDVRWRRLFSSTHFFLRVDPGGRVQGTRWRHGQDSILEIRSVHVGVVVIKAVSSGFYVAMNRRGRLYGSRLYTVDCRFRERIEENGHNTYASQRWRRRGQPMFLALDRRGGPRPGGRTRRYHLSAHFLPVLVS
Ecoli growth – blocks Escherichia coli growth. OD600, 23 h; hits give low values. OD600 absorbance (no concentration beside the values). 330,000 compounds, 0.21% hits. AID 1053175;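 active = OD600 absorbance below the run mean of sample wells minus 3.6 SD, in any replicate, cut at about 0.56 in these data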;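 note: stock transfer was 300 nL into about 60 µL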
Ecoli rRNA inh OD600 – second read-out of Ecoli rRNA inh, no call of its own (marks repeat the call); OD600 change, %; measured here: OD600 growth;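 optical density of the mix in the first replicate; 0 = DMSO median and -100 = no signal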
Ecoli rRNA inh RFP – further read-out of Ecoli rRNA inh, marked with its call; RFP signal change, %; measured here: RFP humanized mutant strains;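 first replicate; 0 = DMSO median and -100 = no signal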
* marks the source's active call; other numbers are inactive results; i = inactive; . = not tested or not shown. Not all compounds are listed; the hit share may differ from the screen's.

SMILES	HNF4A DNA FP	UCH37 inh	Beta2AR agonist	ALR inh	Ecoli rRNA inh	Ecoli rRNA inh OD600	Ecoli rRNA inh RFP	FGF22 binding	Ecoli growth
COc1cccc(C2Nc3ccc4ccccc4c3C3=C2C(=O)CCC3)c1O (stereo unspecified)	5.8	6.9	14	5	-8	-8	-0.9	i	0.73
CCOc1ccc(/C(C)=N\NC(=O)Cc2ccccc2)cc1	0.2	.	2	-9	14	9	2.8	i	.
COc1ccccc1Cn1c(=S)[nH]c2cc(C(=O)NCCN3CCOCC3)ccc2c1=O	-2.2	3.1	10	52	.	.	.	.	0.76
CCOc1ccccc1NC1=C(Cl)C(=O)N(c2ccc(OC)cc2)C1=O	0.9	2.8	4	0	.	.	.	.	0.63
CCOC(=O)N1CCN(C(=O)c2cccc(OC)c2O)CC1	1.8	3.1	2	18	.	.	.	.	0.71
COc1ccc(-c2nnc3ccc(SCC(=O)NCc4ccco4)nn23)cc1	-6.6	1.4	-5	-4	.	.	.	.	0.68
N#CCc1c(C#N)c(N)nc(N2CCOCC2)c1C#N	-3.9	1.5	-7	46	1	3	-8.3	i	0.68
Cc1ccc(-c2c(C#N)c(N)nc3c2CCCCC3)cc1	0.9	-80	-7	-2	.	.	.	.	0.71
Cc1cccc(OCC(=O)NCC(=O)N/N=C/c2ccc(N(C)C)cc2)c1	-1.1	.	7	-3	11	20	0.0	i	.
COc1ccc(-n2cc(-c3ccccc3)c3c(NCCOCCO)ncnc32)cc1	6.4	5.9	-3	.	-21	-26	4.0	i	0.66
O=C(NNC(=O)c1ccccc1-c1ccccc1C(=O)O)c1cccc([N+](=O)[O-])c1	4.0	2.6	0	-4	-7	-8	6.4	i	.
COc1cc2c(cc1NC(=O)CSc1nc3ccccc3[nH]1)oc1ccccc12	-4.4	2.0	-8	-4	.	.	.	.	0.67
Cc1c(Cc2ccccc2)c(=O)oc2cc(OC(C)C(=O)NCC3CCC(C(=O)O)CC3)c(Cl)cc12 (stereo unspecified)	-1.2	-41	-2	.	.	.	.	i	0.69
CCN(CC(=O)Nc1c(F)cccc1F)C(=O)c1cc([N+](=O)[O-])ccc1N1CCOCC1	-0.9	8.9	7	2	1	14	-0.6	i	0.67
CC(C)OC(=O)CSc1nc(N)c(C#N)c(-c2cccs2)c1C#N	2.4	-40	6	-12	.	.	.	.	0.73
O=CN1CCN(C(=O)CC(c2ccccc2)c2cc(Br)ccc2O)CC1 (stereo unspecified)	0.7	4.6	3	10	-10	-9	-4.4	i	0.69
Cc1ccc2nc(NC(=O)CN(C)S(=O)(=O)c3ccc(Br)s3)sc2c1	0.3	0.3	4	.	.	.	.	.	0.7
Cc1cccnc1NC(=O)c1ccccc1NC(=O)C(C)(C)C	0.7	-1.1	0	-5	.	.	.	.	0.74
C=COCCNC(=S)N1CCOCCOCCN(C(=S)NCCOC=C)CCOCC1	-0.4	1.1	1	3	.	.	.	.	0.67
CC(=O)Nc1c(C(=O)NCc2ccccc2)nnn1Cc1ccccc1	-2.7	6.3	5	0	.	.	.	.	0.73
Cc1ccc(Cn2nc(C)c(C(=O)NCC(c3cccs3)N3CCOCC3)c2Cl)cc1 (stereo unspecified)	-0.6	4.5	7	-6	-4	1	5.0	i	0.68
Cc1ccnc(NC(=O)COC(=O)c2ccc(F)cc2F)n1	-3.3	-2.2	-3	-15	14	8	3.2	i	0.69
Cc1cc2nc(C(C)(C)C)c(Cc3cccc(F)c3)n2c(C)c1Br	5.4	.	.	.	7	7	-2.1	i	.
COc1ccc(-c2cc(C(=O)Nc3cc(C)nn3-c3ccccc3)no2)cc1OC	3.3	-10.0	31	-10	2	-3	5.3	i	0.73
O=C(COC(=O)c1cc([N+](=O)[O-])ccc1N1CCOCC1)Nc1ccc(Cl)cn1	-1.2	4.1	-6	-7	0	4	0.7	i	0.71
CCOc1ccc(NS(=O)(=O)c2ccc(OCC)c3ncccc23)cc1	-3.0	0.7	-19	-4	.	.	.	.	0.63
Oc1ccc(Cc2ccccc2)c2cccnc12	0.4	5.4	.	.	-58	-76	-20	i	0.64
COCC1CCCCN1C(=O)c1ccc(OC2CCN(CCc3ccccc3)CC2)cc1 (stereo unspecified)	-1.4	0.0	-5	-69	6	5	-0.4	i	0.68
O=C(Cn1ccc2ccccc2c1=O)NCC1COc2ccccc2O1 (stereo unspecified)	-3.6	-2.5	1	1	.	.	.	.	0.73
CCOc1cc(CNc2ccccc2)cc(Br)c1OCC(=O)NC(C)(C)C	-3.6	0.0	11	4	.	.	.	.	0.71
CC(C(=O)Nc1ccc(Cl)cc1Cl)N1C(=O)NC2(CCCC2)C1=O (stereo unspecified)	2.7	2.1	-19	.	0	2	0.3	i	0.69
Cc1ccc2nc(NC(=O)c3cc(-c4ccco4)nc4ccccc34)sc2c1	5.9	-202	4	.	9	-1	5.0	i	0.71
COc1ccc(S(=O)(=O)N2CCCCCC2)cc1C(=O)N(C)CC(=O)Nc1ccccc1Cl	0.0	3.1	6	3	-11	-14	-0.5	i	0.68
CC1=NN(C(=O)c2ccoc2C)C(O)(C(F)(F)F)C1 (stereo unspecified)	-4.4	5.9	7	-12	8	-16	-3.4	i	0.65
CC(=O)c1c(C)[nH]c(C(=O)/C(C#N)=C/c2cccc(C)c2)c1C	1.7	2.3	8	21	1	-7	1.8	i	0.67
CCN1CCN(S(=O)(=O)c2ccc(-c3cc(C)no3)s2)CC1	-0.1	5.4	-6	-12	6	14	-0.6	i	0.7
CC[C@H](C)[C@H](NC(N)=O)C(=O)NNC(=O)c1ccc(COc2cccc3cccnc23)cc1	0.5	-0.3	5	-10	-1	8	-0.2	i	0.64
COC(=O)C1=C(C)N(Cc2ccccc2)C(=O)/C1=C\c1ccco1	7.9	1.5	3	-12	-3	6	3.4	i	0.71
CCCCCC(=O)Nc1nc(C)c(-c2csc(Nc3cc(Cl)ccc3C)n2)s1	2.0	-3.4	5	-1	2	11	8.2	i	0.68
CC(CN1CCCC1)OC(=O)Cc1ccc(Cl)cc1 (stereo unspecified)	-3.8	1.8	5	-8	6	8	-0.1	i	0.64
COc1ccc(S(=O)(=O)NCC(c2cccnc2)N2CCN(Cc3ccccc3)CC2)cc1C (stereo unspecified)	-2.2	4.6	5	-7	3	-6	1.1	i	0.72
CCOc1ccc(NC(=O)c2cccc3c2C(=O)N(Cc2cccnc2)C3)cc1	0.2	6.0	-6	0	-5	-6	-4.5	.	0.68
O=C(NCC(=O)N1CCN(c2ccccc2O)CC1)c1ccc(Br)o1	1.3	-0.2	-7	99*	2	6	-0.7	i	0.63
CN(CCO)c1cc(N(C)CCO)c([N+](=O)[O-])cc1[N+](=O)[O-]	0.5	18	20	-21	14	11	3.8	i	0.7
O=C(Cc1nnc(NC(=O)Nc2ccccc2F)s1)NCc1ccccc1	0.4	0.4	-15	-22	10	13	-0.5	i	0.67
Brc1c(CSc2nncn2-c2ccccc2)nc2ncccn12	2.9	-325	-8	-5	.	.	.	.	0.69
C/C(=N/NC(=O)c1cc(-c2cccc([N+](=O)[O-])c2)n[nH]1)c1ccc(Cl)cc1	-3.9	.	31	-2	.	.	.	.	.
O=C(CN1CCOCC1)Nc1nc2ccc(Br)cc2s1	-1.2	6.0	-8	.	.	.	.	.	0.72

By substructure: those above with an NH in an aromatic ring (4)
SMILES	HNF4A DNA FP	UCH37 inh	Beta2AR agonist	ALR inh	Ecoli rRNA inh	Ecoli rRNA inh OD600	Ecoli rRNA inh RFP	FGF22 binding	Ecoli growth
COc1ccccc1Cn1c(=S)[nH]c2cc(C(=O)NCCN3CCOCC3)ccc2c1=O	-2.2	3.1	10	52	.	.	.	.	0.76
COc1cc2c(cc1NC(=O)CSc1nc3ccccc3[nH]1)oc1ccccc12	-4.4	2.0	-8	-4	.	.	.	.	0.67
CC(=O)c1c(C)[nH]c(C(=O)/C(C#N)=C/c2cccc(C)c2)c1C	1.7	2.3	8	21	1	-7	1.8	i	0.67
C/C(=N/NC(=O)c1cc(-c2cccc([N+](=O)[O-])c2)n[nH]1)c1ccc(Cl)cc1	-3.9	.	31	-2	.	.	.	.	.

Next part
SMILES	HNF4A DNA FP	UCH37 inh	Beta2AR agonist	ALR inh	Ecoli rRNA inh	Ecoli rRNA inh OD600	Ecoli rRNA inh RFP	FGF22 binding	Ecoli growth
O=C(COC(=O)c1cccnc1Nc1ccccc1F)NCc1ccc2c(c1)OCO2	3.7	-12	2	1	.	.	.	.	0.7
O=C(NC(=S)Nc1cc(Cl)ccc1O)c1cccc(Br)c1	3.1	.	14	.	-34	-59	-9.1	i	.
NNC(=O)COc1ccc(C(F)(F)F)cc1	-0.1	2.4	2	2	11	10	6.7	i	0.72
CSC1=NCCN1C(=O)Cc1ccc(F)cc1	-0.5	2.0	14	-3	3	6	2.3	i	0.67
COCCn1c(C)cc(C2=NNC(=Nc3ccc(OC)cc3)SC2)c1C	1.2	6.5	21	-4	.	.	.	.	0.63
COc1cccc(NC(=O)N2CCCC(C(=O)NCc3ccc(F)cc3)C2)c1 (stereo unspecified)	1.0	4.6	-4	-4	.	.	.	.	0.71
CCOC(=O)CSc1nnc(C)c(C)n1	0.3	1.0	5	-10	.	.	.	.	0.69
O=c1cc(-c2ccccc2)nc2nc(-c3ccco3)[nH]n12	-41	4.7	-8	30	.	.	.	.	0.71
CC(C)C(=O)NC(=O)COC(=O)/C=C/c1cccs1	-2.2	6.4	-2	.	0	1	-2.9	i	0.68
Cc1onc(-c2ccccc2)c1-c1nc2ccccc2c(=O)o1	0.5	-1.7	13	.	.	.	.	.	0.72
COc1cccc(-c2nc(CS(=O)CC(=O)NC3CC3)c(C)o2)c1 (stereo unspecified)	0.1	3.9	13	99*	-3	3	-6.1	i	0.76
CCOc1ccc(-c2n[nH]c(C(=O)NN)c2C)cc1	0.1	2.1	1	-22	4	2	0.7	i	0.7
CCOC(=O)N1CCN(C(=O)CSc2ccc(-c3ccccc3)nn2)CC1	-4.9	-0.6	-6	-4	16	5	0.7	.	0.66
CC(=O)N[C@@H](Cc1c[nH]c2ccccc12)C(=O)OCC(=O)Nc1ccc(S(=O)(=O)N(C)C)cc1	1.1	-4.0	4	-13	2	1	5.1	i	0.72
COc1ccc(Cl)c2sc(N(CCN(C)C)C(=O)c3ccc4c(c3)OCCO4)nc12	2.4	8.8	44*	-5	-6	-5	2.6	i	0.62
O=C(CCc1nc2sc3c(c2c(=O)[nH]1)CCCC3)Nc1ccccc1Cl	8.9	-3.5	-4	2	6	6	-0.8	i	0.59
CN(Cc1ccc(OC(F)F)cc1)C(=O)c1cccc(S(=O)(=O)N2CCN(Cc3ccccc3)CC2)c1	-0.8	-0.4	4	.	-1	-19	5.4	i	0.68
CCn1c(NC(=O)C(C)C)c2ccccc2nc1=O	-1.1	-11	6	33	12	11	0.9	i	0.68
Cc1nc2cc(C(F)(F)F)ccc2n1C1CCN(CC(=O)N2CCCC2)CC1	6.4	4.4	-7	-11	13	2	4.1	i	0.67
CCOc1ccc(NC(=S)NCc2ccc3c(c2)OCO3)cc1	0.5	4.5	1	-5	-5	-2	-1.1	i	0.72
COc1cccc([C@@H]2CC=C(C(=O)O)[C@H](c3ccc(F)cc3)N2S(=O)(=O)c2ccc(C)cc2)c1	1.6	1.4	-1	-6	-25	-31	-9.1	i	.
Cc1ccc(SCCNC(=S)Nc2ccc(C)c(C)c2)cc1	-1.8	1.1	3	1	.	.	.	.	0.68
Cc1nc(NC(=O)C23CC4CC(CC(C4)C2)C3)sc1Cc1ccc2c(c1)OCO2	-0.7	3.8	12	-24	.	.	.	.	0.67
O=C(CSc1nc(C(F)(F)F)cc(=O)[nH]1)Nc1nccs1	1.8	3.2	-1	-7	5	9	-4.6	i	0.68

Compound activity as filed in PubChem BioAssay.
